High-throughput results deposited in PubChem BioAssay by National Center for Advancing Translational Sciences (NCATS).
Menin-MLL FL inh = inhibitors of human menin-MLL interaction, wild-type MLL peptide; AID 1766; FP activity change, % at 61.4 µM; 290,000 tested, under 10 active; Fluorescence polarization, fluorescein-MLL peptide displacement from menin; inconclusive = falling polarisation curve, or a change in total fluorescence; inactive = total fluorescence flat and polarisation flat or rising; no compound was filed as active; the % refers to the polarisation; negative = inhibition;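 note: % of control where 0% means no effect; inhibitors lower the polarisation; unlabelled MLL peptide was the positive control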
gsp ag = activates gsp, the McCune-Albright syndrome mutation. AID 624287. gsp mutant cells, cAMP HTRF, 30 min; control for the full effect not named in the record. hit rate 0.13% among 340,000. Potency, µM (top dose mostly 76.9 µM), inactives show top-dose activation (cAMP increase), actives largely listed as activators; active = well fitted activation curve with a large enough effect; inconclusive = small, poorly fitted or top-dose-only effect, or another doubt; inactive = no such curve, though single readings can be large or run the other way; cell line not stated here;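 note: phosphodiesterase inhibitor Ro 20-1724 added with compounds to block cAMP breakdown; potency is the fitted concentration of half-maximal effect; nearly all actives have a fitted effect of over 60% in size; about a fifth of the inactives were tested at one dose only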
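Cells in DMEM/10% FBS with G418 were pretreated with compounds in DMSO plus […] (300 uM stock) for 30 min at 37C. cAMP was measured by HTRF (cAMP-d2 plus anti-cAMP antibody-K) after 30 min at room temperature.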
Sfp PPTase inh = inhibitors of Bacillus subtilis Sfp phosphopantetheinyl transferase; Potency, µM, for the others: max response, negative = inhibition, actives largely listed as inhibitors; Biochemical Sfp PPTase activity, qHTS; hit rate 3.5% among 310,000; Q9F4F7; active = well fitted inhibition curve with a large enough effect; inconclusive = small, poorly fitted or top-dose-only effect, or another doubt; inactive = no such curve, though single readings can be large or run the other way;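 note: the enzyme is Sfp with the accession as filed and its product quenches rhodamine fluorescence; potency is the fitted concentration of half-maximal effect; 0% = enzyme reaction without inhibitor and -100% = no enzyme wells; top concentration of the series not given in the record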
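After 15 min at room temperature with compound, 15 nM Sfp received 5 uM rhodamine-CoA plus 12.5 uM BHQ-2-ybbR (50 mM Hepes pH 7.6, 10 mM MgCl2). Rate came from the fluorescence difference over 30 min, ex 525/em 598 nm.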
ClpP mod = qHTS Assay for Activators of ClpP. AID 651965, 2013. hit rate 1.9% among 340,000. purified B. subtilis ClpP, FRET peptide cleavage, 20 min. Potency, µM (highest dose often 57.5 µM), for the others: at the top dose activity change, negative = active. ATP-dependent Clp protease proteolytic subunit (Bacillus subtilis (strain 168)), P80244; active = well fitted falling curve with a large enough effect; inconclusive = small, poorly fitted or top-dose-only effect; inactive = no such curve, though single readings can be large or run the other way; note: potency is the fitted concentration of half-maximal effect; the source files actives as falling curves though it sought activators and does not explain the sign; nearly all actives have a fitted effect of over 65% in size; many hits overshoot -100%
Target sequence (P80244 whole entry, looked up): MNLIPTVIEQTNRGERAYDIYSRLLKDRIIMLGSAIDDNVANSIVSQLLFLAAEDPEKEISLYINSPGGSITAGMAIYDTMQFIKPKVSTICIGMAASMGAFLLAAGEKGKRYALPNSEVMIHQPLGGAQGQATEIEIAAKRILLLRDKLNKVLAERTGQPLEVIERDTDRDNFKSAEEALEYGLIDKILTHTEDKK
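FRET quenching reversal measured ClpP activation: 10 microg/mL B. subtilis ClpP at pH 8 with the FRET-FV decapeptide, read at 430 nm after 320 nm excitation. The 20-min minus 0-min signal was scaled between DMSO/no-enzyme wells and ADEP (5.8 microM final).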
TRPV1 potentiator = potentiators of human vanilloid receptor 1 (TRPV1) | potentiation, % at 8.33 µM | Q8NER1 | hit rate 0.02% among 320,000 | TRPV1-expressing cells, Fluo-8 calcium influx, capsaicin EC20 potentiation; host cell line not named in the record; control for the full effect not named in the record; active means potentiation above 80%; inconclusive means 30% to 80%; inactive means below 30%; note: 0% is about no effect
Target sequence (Q8NER1 whole entry, looked up): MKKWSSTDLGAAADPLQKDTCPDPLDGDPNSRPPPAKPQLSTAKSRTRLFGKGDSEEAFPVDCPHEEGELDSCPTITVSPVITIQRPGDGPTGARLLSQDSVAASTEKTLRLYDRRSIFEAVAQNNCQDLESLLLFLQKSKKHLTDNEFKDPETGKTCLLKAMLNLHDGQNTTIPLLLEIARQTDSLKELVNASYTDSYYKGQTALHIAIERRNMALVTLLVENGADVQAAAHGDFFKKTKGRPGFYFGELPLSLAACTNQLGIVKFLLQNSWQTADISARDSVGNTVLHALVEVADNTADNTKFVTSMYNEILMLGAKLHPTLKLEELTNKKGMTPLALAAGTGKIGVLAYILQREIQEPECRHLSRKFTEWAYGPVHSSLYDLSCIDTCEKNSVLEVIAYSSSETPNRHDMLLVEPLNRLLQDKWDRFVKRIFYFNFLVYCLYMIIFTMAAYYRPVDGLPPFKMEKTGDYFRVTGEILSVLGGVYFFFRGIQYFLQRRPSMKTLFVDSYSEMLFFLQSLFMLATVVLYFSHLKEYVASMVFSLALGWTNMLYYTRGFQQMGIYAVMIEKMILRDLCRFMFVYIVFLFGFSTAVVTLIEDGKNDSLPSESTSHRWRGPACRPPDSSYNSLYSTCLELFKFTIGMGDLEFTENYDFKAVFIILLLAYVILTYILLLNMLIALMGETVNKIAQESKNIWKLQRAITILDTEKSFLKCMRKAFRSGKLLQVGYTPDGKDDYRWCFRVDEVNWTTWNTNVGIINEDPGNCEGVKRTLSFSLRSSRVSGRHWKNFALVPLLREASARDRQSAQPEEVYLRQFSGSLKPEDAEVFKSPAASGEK
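TRPV1-expressing cells were cultured overnight at 35.5C and loaded with Fluo-8 calcium dye for 40 to 90 min at room temperature. After a 10 s baseline, compound was added and calcium influx was read kinetically for 3 min (ex 480/em 520 nm).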
CtBP-E1A inh = inhibitors of CtBP/E1A interaction; AlphaScreen GST-E1A/His-CtBP binding, 1536-well; hits give low values; control for the full effect not named in the record; activity change, % (test concentration not listed); hit rate 0.49% among 340,000; in the data active means activity change below about -65%; inconclusive means about -30% to -65%; inactive means above about -30%; note: % is set by controls: 0 for no effect and ±100 for the full control effect; compound concentration not given in the record
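Steps: dispense buffer (Tris pH 8.0, NaCl 300 mM, TCEP 1 mM, BSA, Tween 20); add 5X protein mix (GST-E1A, His-CtBP, 125 nM each); pin 23 nL compound; 2 h at 37 °C, dark; add 5X beads (50 ug/mL); 1 h; read.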
gsp antag = antagonizes gsp, the McCune-Albright syndrome mutation; gsp-mutant cells, cAMP HTRF, 30 min; control for the full effect not named in the record; Potency, µM (doses to about 76.9 µM), for the others: at the top dose activity change, negative = inhibition, usual class: inhibitors; hit rate 0.4% among 340,000; AID 624288; active = falling curve of any shape with a large fitted effect; inconclusive = falling curve, mostly with a smaller effect; inactive = flat or rising curve; cell line not stated here;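 note: intracellular cAMP measured with PDE inhibitor Ro 20-1724 present during compound exposure; potency is the fitted concentration of half-maximal effect; % is set by controls: 0 for no effect and ±100 for the full control effect; nearly all actives have a fitted effect of over 65% in size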
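Measurement of cellular cAMP by homogeneous time-resolved fluorescence following a 30 min compound exposure at 37C. The PDE inhibitor […] was present throughout; the assay buffer was DPBS with 0.05% BSA and 0.005% Tween 20.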
Active calls of the source: *; ? = inconclusive; . = no result given; & = joins results of further samples; [ ] = dose if it differs, or a comment.

SMILES	Menin-MLL FL inh	gsp ag	Sfp PPTase inh	ClpP mod	TRPV1 potentiator	CtBP-E1A inh	gsp antag
COCCN(C(=O)c1ccccc1F)c1c(N)n(Cc2ccccc2)c(=O)[nH]c1=O	0.5	-20%	10%	.	0	-14	-1%
CC1(C)Cc2c(sc3ncn(N)c(=N)c23)CO1	-4.3	-15%	-11%	-1.8%	2	-5	15%
CCOC(=O)C1OC2(CCCC2)OC1C(=O)OCC (stereo not given)	.	3%	.	0.3%	.	13	14%
Cc1ccc2cc(C(c3nnnn3CC3CCCO3)N3CCCC4(CCCCC4)C3)c(=O)[nH]c2c1 (stereo not given)	.	0%	.	-5.2%	.	-1	14%
COc1ccc(OCc2cc(C(=O)NCC(C)(C)N3CCOCC3)no2)c(Cl)c1	.	29%	14%	1.8%	-10	-1	7%
Cn1c(N)c(C(=O)CSc2nnc(C3CC3)n2-c2ccccc2)c(=O)[nH]c1=O	.	-1%[15.4 µM]	.	1.2%	.	3	9%
CCOC(=O)c1sc(NC(=O)CSc2nc(C)cc(C(F)(F)F)n2)c(C#N)c1C	3.6	-2%	20µM*	-0.4%	20	12	-24%
CCn1cc(C(=O)N2CC(C)CC(C)C2)c(=O)c2cc(S(=O)(=O)N(C)C)ccc21 (stereo not given)	1.0	6%	4%	-8.4%	3	-3	6%
COP1(=O)C=C[C@H](N(Cc2ccccc2)S(=O)(=O)c2ccccc2[N+](=O)[O-])[C@@H](C)O1 (stereo not given in full)	0.7	-22%	1%	0.3%	12	-1	5%
COc1ccccc1-n1cc(-c2ccc([N+](=O)[O-])cc2)[nH]c1=S	2.5	?	19%	.	5	-4	-1%
Nc1nc(-c2ccc3c(c2)CCO3)cs1	3.5	-15%[15.4 µM]	-12%	.	1	3	20%
Cc1nc(N)nc(N/N=C/c2ccccc2)n1	1.1	-6%	-11%	2.2%	-8	-1	-2%
Cc1cccc(-n2c(SCC(=O)N3CCCC3)nnc2-c2ccccn2)c1C	3.9	16%[15.4 µM]	5%	-0.3%	-3	-6	-6%
CCCCC(=O)OCC(=O)C1(O)Cc2c(O)c3c(c(O)c2C(OC2CC(NC(=O)C(F)(F)F)C(O)C(C)O2)C1)C(=O)c1c(OC)cccc1C3=O (stereo not given)	.	9%	.	3.3%	.	-10	-9%
COC(=O)c1ccc(Cn2c(CN3CCOCC3)nc3ccccc3c2=O)o1	3.6	-23%	-8%	0.4%	5	4	-30%
COc1ccc(C(=O)NC(=S)N2CCCCC2c2cccnc2)cc1OC (stereo not given)	-0.9	.	?	2.0%	-1	-7	-3%
c1ccc2c(N3CCCCC3)nnc(N3CCCCC3)c2c1	0.8	.	25%	.	10	.	.
CN(C(=O)COc1cccc(C#N)c1)C1CCS(=O)(=O)C1 (stereo not given)	.	?	.	-2.3%	-2	.	8%
CC(=O)Nc1ccc(S(=O)(=O)Nc2ccc3c(c2)CCC3)cc1	-0.6	12%	-17%	.	0	1	0%
Cc1nccn1-c1c([N+](=O)[O-])c(=O)n(C)c2ccccc12	-0.4	22%[15.4 µM]	0%	-0.6%	-18	2	-22%
CCCc1cc(N2CCCC(C(=O)NCC)C2)n2ncnc2n1 (stereo not given)	-0.5	26%	8%	-0.5%	13	1	-5%
Cn1cnc(C(=O)NC2CCN(C(=O)OC(C)(C)C)CC2)c1C(=O)NC1CCN(C(=O)OC(C)(C)C)CC1	.	.	.	2.8%	.	1	-19%
Cc1cc(Nc2ccc(F)c(Cl)c2)n2nc(C)nc2n1	-0.1	?	9%	1.8%	7	-3	-1%
O=C(CSc1nnc(CNC(=O)c2ccccc2F)o1)Nc1ccc2c(c1)OCCO2	3.8	-3%	4%	-0.8%	1	7	16%
COc1ccccc1-c1oc2ccccc2c1C#CCO	.	?	.	-15%	.	0	7%
CCn1c(SCc2ccc(C(=O)Nc3cc(C)cc(C)c3)cc2)nnc1-c1ccncc1	?	-1%	-2%	-0.4%	3	-3	?
CN(NC(N)=O)c1ncc(C(F)(F)F)cc1Cl	-2.2	-3%	8%	-1.1%	.	0	10%
Cc1nnc(NC(=O)c2cccc(S(=O)(=O)N3CCc4ccccc43)c2)s1	0.0	-16%	13%	0.8%	18	-8	-20%
CCCn1nc2cc(C(=O)NCc3ccc(C)cc3)ccc2c1OCC	1.8	24%	3%	3.9%	-2	3	-4%
O=C(/C=C/c1ccc([N+](=O)[O-])cc1)Nc1cccc(C(=O)Nc2ccccc2C(=O)O)c1	-1.9	-27%	22%	0.1%	1	.	?
CCc1ccccc1NC(=O)CC1SCCNC1=O (stereo not given)	-6.4	9%[15.4 µM]	20%	.	6	-5	7%
CCCOC(=O)c1ccc2c(c1)C(=O)N(c1ccccc1)C2=O	2.3	-27%	26%	-1.0%	.	7	0%
CC(C)Oc1ccc(C(=O)Nc2ccc(S(=O)(=O)N3CCN(C)CC3)cc2)cc1	-0.6	27%	2%	-1.3%	-21	0	2%
O=S(=O)(Nc1ncccn1)c1ccc(NS(=O)(=O)c2cc(Cl)ccc2Cl)cc1	-4.3	-1%[15.4 µM]	13%	.	2	5	6%
Cc1cccn2c(=O)c3cc(C(=O)N4CCOCC4)n(C)c3nc12	.	?	6%	?	15	13	8%
O=C1NC(=O)/C(=C/c2ccc(OS(=O)(=O)c3ccc(F)cc3F)cc2)N1	5.2	?	3%	.	14	1	-10%
COCCCNC(=O)c1ccc(CS(=O)(=O)c2ccc(Br)cc2)o1	-1.3	-19%	-6%	-1.7%	3	2	1%
O=C(NCC1CCCO1)c1ccc2c3n(nc2c1)-c1ccccc1CO3 (stereo not given)	-1.2	-5%	-10%	4.2%	?	.	-2%
CC(C)CC1(C)NC(=O)N(CCN2C(=O)c3ccccc3C2=O)C1=O (stereo not given)	2.4	-51%[inhibitor]	7%	-16%	0	-14	6%
Cc1cc(NC(=O)COC(=O)C2CCN(S(=O)(=O)c3c(Cl)cccc3Cl)CC2)no1	2.8	-1%	2%	-0.3%	-9	0	0%
COc1cccc(CNC(=O)C2CCN(S(=O)(=O)N3CCCCC3)CC2)c1	4.9	-2%	-2%	-0.7%	-10	5	-9%
CCc1cccc(C)c1NC(=O)C1CCN(C(=O)c2ccc([N+](=O)[O-])cc2)CC1	2.8	-32%[inhibitor]	28%	-0.9%	-23	3	4%
Cc1cc(=O)oc2cc(NC(=O)c3cccc(Br)c3)ccc12	1.8	4%[15.4 µM]	12%	1.7%	0	3	4%
COc1cccc(C(CNC(=O)C(c2ccccc2)c2ccccc2)N(C)C)c1 (stereo not given)	-1.0	9%[15.4 µM]	3%	.	21	3	2%
CCOc1ccc(NC(=O)c2ccccc2C(=O)c2ccccc2)cc1OCC	-3.1	-5%	4%	-0.8%	6	.	0%
COC(=O)C1=C(C)N(Cc2ccccc2)C(=O)N[C@H]1c1cccs1	-4.1[11.7 µM]	.	8%&11%	-1.6%	15	-4	-1%
Cc1ccc(-c2nc(-c3ccncc3)no2)cc1Cl	-3.3	-1%[15.4 µM]	15%	0.9%	-4	18	0%
Cc1ccc(S(=O)(=O)N(C)Cc2cc3cc(C)ccc3[nH]c2=O)cc1	.	-3%	4%	-6.7%	-4	2	-2%
Cc1[nH]nc(SCC(=O)Nc2ccc(C#N)cc2)c1[N+](=O)[O-]	10	3%[15.4 µM]	-21%	2.1%	-5	6	16%
CC(=O)c1ccc(S(=O)(=O)Nc2cc3c(cc2C(C)=O)OCO3)cc1	2.9	-10%	8%	.	4	3	6%
O=C(O)CC1S/C(=N/N=C/c2ccc(-c3ccccc3[N+](=O)[O-])o2)NC1=O (stereo not given)	5.5	0%	22µM*	-3.0%	8	-15	-3%
CC(=O)c1c(O)c2ccccc2n(C)c1=O	-1.6	17%[15.4 µM]	12%	1.0%	3	4	5%
O=C(c1cccc(F)c1)N1CCN(c2cccc(Cl)c2)CC1	3.3	17%	9%	28µM*	-15	16	-7%
O=C(N/N=C/c1ccco1)C1CC1	2.5	?	-35%	-5.3%	-3	-7	5%
Cc1cc(C(=O)COC(=O)CNC(=O)c2ccco2)c(C)n1Cc1ccco1	?	3%	7%	-0.5%	10	-9	3%
CC1=Nc2ccc(C)cc2/C1=C/c1c(N)n2c(S(=O)(=O)C(C)C)nsc2nc1=O	13	-19%	2%	0.5%	-3	-3	40µM*
O=C(Nc1ccccc1C(F)(F)F)N1CCCC1c1cccnc1 (stereo not given)	0.5	-4%[15.4 µM]	19%	.	4	5	14%
Cc1cccn2c(=O)c3cc(C(=O)NCCN4CCOCC4)c(=N)n(Cc4ccc(F)cc4)c3nc12	.	?	7%	4.3%	-21	1	-4%
CN(C)S(=O)(=O)c1ccc(S(=O)(=O)N(Cc2ccco2)Cc2ccccc2Cl)cc1	0.0	18%	9%	-0.4%	-16	16	-1%
CCOc1ccc(CN(C)C(=O)c2cccnc2SC)cc1OC	-0.4	2%	15%	.	10	-16	6%
Continuation.
SMILES	Menin-MLL FL inh	gsp ag	Sfp PPTase inh	ClpP mod	TRPV1 potentiator	CtBP-E1A inh	gsp antag
CSc1nc(-c2ccco2)cc(C(F)(F)F)c1C#N	0.5	-17%	1%	-7.4%	-6	9	?
Cc1ccc(NC(=O)CCOc2ccccc2)c(C)c1	1.8	12%	-16%	-0.1%	-8	.	-4%
CC(=O)/C(C#N)=C1\NC(=O)C(Cc2ccc(C)c(Cl)c2)S1 (stereo not given)	3.9	0%[15.4 µM]	2%	.	-4	8	?
CC1(C)C(=O)C2(CCCCC2)C(=O)OC1c1ccc(O)cc1 (stereo not given)	0.8	27%	6%	0.0%	-14	5	-14%
O=C(Nc1nnc(COc2ccc(F)cc2)s1)c1ccco1	0.5	1%	0%	1.8%	25	.	-1%
CCOC(=O)c1sc(Nc2ccc(C)cc2C)nc1C	2.3	2%	-19%	-2.7%	-4	3	?

Rows were taken by chance; about 5.3% have a hit in one of these screens.
